# Screening data: PubChem, Broad Institute
# YB-1 expression: inhibitors of YB-1 gene expression, primary screen, cell-based, fluorescence. delta delta Cp (YB-1 minus CDIP) (test concentration not listed). AID 434959, 2010. actives 0.37% (n = 30,000). U2OS, qRT-PCR YB-1 vs CDIP delta delta Cp, 16 h; stronger effect = higher value; zero = DMSO, each unit about twofold;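 active = delta delta Cp rounded down to an integer at or above 3, about 3 SD of DMSO wells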;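 note: higher means less YB-1 transcript or more CDIP transcript relative to DMSO; stock transfer was 100 nL into about 100 µL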
# PD-1 reversal: activators reversing PD-1 mediated T-cell inhibition, primary screen, luminescence, primary human CD4 T cells, PD-L1 beads | CellTiter-Glo 96 h | activation, % (test concentration not listed) | 29,000 tested, under 10 active | AID 2316, 2010;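 active = replicate mean of 50% or more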;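 note: 0% = median vehicle wells and 100% = positive control; 100 nL library stock added to about 50 µL; numbers are from one replicate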
# MITF inhib: inhibitors of MITF, primary screen, MITF inhibitor project, cell-based, luminescence. TRPM1 promoter luciferase, 24 h. inhibition, % (test concentration not listed). AID 2240, 2010. actives 0.28% (n = 37,000);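 active = most replicates at 85% or more, or half of them and the mean; inconclusive = half reach 85% but not the mean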;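 note: human melanocyte line stably carrying TRPM1 promoter luciferase reporter; 0% = vehicle wells and 100% = a positive control; the first replicate is given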
# Hedgehog inh: Hedgehog pathway signaling inhibitors, primary screen, luminescence, Shh-LIGHT2 cells, Gli-luciferase; Shh-LIGHT2 Gli-luciferase reporter, 30 h; inhibition, % (test concentration not listed); actives 2.1% (n = 22,000); AID 2313, 2010;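 active = replicate mean of 65% or more; inconclusive = mean lower but half the replicates past it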;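 note: pathway switched on by Shh-conditioned medium diluted 1 in 25 in low serum; 100 nL library stock added to about 40 µL; 0% = median of neutral wells and 100% = positive control level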
# An asterisk follows results filed as active; ? = inconclusive; . = no result given. Some of the compounds tested, so the mix of outcomes need not match the whole.
(1) C/C=C(/C)C(=O)O[C@H]1C=C(CO)C(=O)[C@H](OC(=O)/C(C)=C/CO)[C@H]1C(C)C
(2) C[C@H](CO)N1C[C@H](C)[C@H](CN(C)Cc2ccc(Cl)c(Cl)c2)Oc2ccc(NC(=O)NC3CCCCC3)cc2CC1=O
(3) O=C(O)Cc1cc(I)c(Oc2cc(I)c(O)c(I)c2)c(I)c1
(4) COc1ccc(CN(C)C[C@@H]2Oc3c(NC(=O)c4cnccn4)cccc3C(=O)N([C@@H](C)CO)C[C@H]2C)cc1
(5) C[C@@H]1CN([C@H](C)CO)C(=O)Cc2cc(NC(=O)Cc3ccccc3)ccc2O[C@H]1CN(C)Cc1ccc(Cl)c(Cl)c1
(6) O=C(CSc1nnc(-c2ccc(Cl)cc2)o1)Nc1ccc(I)cc1
(7) COc1ccc(CCNC(=O)C(=O)c2c(C)[nH]c3ccccc23)cc1OC
(8) COc1ccc(S(=O)(=O)Nc2cccc3c2O[C@H](CN(C)S(=O)(=O)c2cn(C)cn2)[C@@H](C)CN([C@@H](C)CO)C3=O)cc1

assay / entry,1,2,3,4,5,6,7,8
YB-1 expression,0.092,0.066,-0.22,0.12,0.23,.,.,0.59
PD-1 reversal,-37,-1.2,.,.,0.8,3.9,-2.4,-2.9
MITF inhib,106*,6,2,-11,3,-20,-24,-7
Hedgehog inh,46,15,6,-14,-27,.,.,50

(9) Cc1noc(C)c1NC(=O)Nc1cccc2c1O[C@@H](CN(C)Cc1ccc(-c3ccccc3)cc1)[C@@H](C)CN([C@@H](C)CO)C2=O
(10) CNC[C@@H]1Oc2ccc(NC(=O)Cn3cnnn3)cc2C(=O)N([C@H](C)CO)C[C@@H]1C
(11) CN1CCC[C@@H]1CCO[C@](C)(c1ccccc1)c1ccc(Cl)cc1
(12) O=c1c2ccccc2nc(CSc2nc(C3CC3)nc3ccccc23)n1-c1ccccc1
(13) CCOC(=O)c1c(-c2ccccc2)csc1NC(=O)Cn1c(=O)oc2ccccc21
(14) N#Cc1c(NC(=O)CSc2n[nH]c(-c3ccc(Cl)cc3Cl)n2)sc2c1CCCC2
(15) C[C@H](CO)N1C[C@H](C)[C@@H](CN(C)C(=O)Nc2ccc3c(c2)OCO3)Oc2c(cccc2N(C)C)C1=O
(16) C[C@@H]1CN([C@@H](C)CO)C(=O)c2cc(N(C)C)ccc2O[C@H]1CN(C)Cc1ccc(Cl)c(Cl)c1

assay / entry,9,10,11,12,13,14,15,16
YB-1 expression,-0.21,0.32,0.36,.,.,.,-0.089,-0.076
PD-1 reversal,2.2,0.7,.,-6.1,-0.1,-2.3,.,-0.6
MITF inhib,-5,-1,2,20,1,-9,4,-3
Hedgehog inh,-78,.,22,.,.,.,-27,-44

(17) C[C@@H]1CCCCO[C@H](CN(C)S(=O)(=O)c2cccs2)[C@@H](C)CN([C@H](C)CO)C(=O)c2cc(NC(=O)CCCCCC(=O)Nc3ccccc3N)ccc2O1
(18) C[C@@H]1CN([C@H](C)CO)C(=O)c2cc(NS(=O)(=O)c3cn(C)cn3)ccc2O[C@@H]1CN(C)S(=O)(=O)c1ccc(Cl)cc1
(19) Cc1ccc(S(=O)(=O)Nc2ccc3c(c2)CC(=O)N([C@H](C)CO)C[C@H](C)[C@H](CN(C)S(=O)(=O)c2ccc(C)cc2)O3)cc1
(20) CNC(=O)CCc1nc(-c2ccc(Cl)cc2)no1
(21) COc1ccc2c(c1)c(CC(=O)O)c(C)n2C(=O)c1ccc(Cl)cc1
(22) CNC[C@H]1OCCCC[C@@H](C)Oc2ccc(NC(=O)Nc3ccc4c(c3)OCO4)cc2C(=O)N([C@H](C)CO)C[C@@H]1C
(23) COc1ccc(OCC(=O)Nc2cc(-c3nn4c(C)nnc4s3)ccc2C)cc1
(24) COc1cc(O)c(Oc2cc(C)cc(O)c2C(=O)O)c(CO)c1

assay / entry,17,18,19,20,21,22,23,24
YB-1 expression,0.16,0.029,0.34,.,-0.27,-0.12,.,0.62
PD-1 reversal,2.3,0.5,-0.1,0.5,1.5,.,1.4,0.6
MITF inhib,-2,4,18,-10,-12,-2,-26,-2
Hedgehog inh,.,-25,?,.,-82,-28,.,-2

# 10 entries from above, with two lines to a compound:
# Results follow in this order: YB-1 expression | PD-1 reversal | MITF inhib | Hedgehog inh
1: C/C=C(/C)C(=O)O[C@H]1C=C(CO)C(=O)[C@H](OC(=O)/C(C)=C/CO)[C@H]1C(C)C
→ 0.092 | -37 | 106* | 46
2: C[C@H](CO)N1C[C@H](C)[C@H](CN(C)Cc2ccc(Cl)c(Cl)c2)Oc2ccc(NC(=O)NC3CCCCC3)cc2CC1=O
→ 0.066 | -1.2 | 6 | 15
3: O=C(O)Cc1cc(I)c(Oc2cc(I)c(O)c(I)c2)c(I)c1
→ -0.22 | . | 2 | 6
4: COc1ccc(CN(C)C[C@@H]2Oc3c(NC(=O)c4cnccn4)cccc3C(=O)N([C@@H](C)CO)C[C@H]2C)cc1
→ 0.12 | . | -11 | -14
5: C[C@@H]1CN([C@H](C)CO)C(=O)Cc2cc(NC(=O)Cc3ccccc3)ccc2O[C@H]1CN(C)Cc1ccc(Cl)c(Cl)c1
→ 0.23 | 0.8 | 3 | -27
6: O=C(CSc1nnc(-c2ccc(Cl)cc2)o1)Nc1ccc(I)cc1
→ . | 3.9 | -20 | .
7: COc1ccc(CCNC(=O)C(=O)c2c(C)[nH]c3ccccc23)cc1OC
→ . | -2.4 | -24 | .
8: COc1ccc(S(=O)(=O)Nc2cccc3c2O[C@H](CN(C)S(=O)(=O)c2cn(C)cn2)[C@@H](C)CN([C@@H](C)CO)C3=O)cc1
→ 0.59 | -2.9 | -7 | 50
9: Cc1noc(C)c1NC(=O)Nc1cccc2c1O[C@@H](CN(C)Cc1ccc(-c3ccccc3)cc1)[C@@H](C)CN([C@@H](C)CO)C2=O
→ -0.21 | 2.2 | -5 | -78
10: CNC[C@@H]1Oc2ccc(NC(=O)Cn3cnnn3)cc2C(=O)N([C@H](C)CO)C[C@@H]1C
→ 0.32 | 0.7 | -1 | .

# (further entries)
(25) CN(c1cccc(NC(=O)c2ccc(CN3CCOCC3)cc2)c1)S(C)(=O)=O
(26) CC(C(=O)O)c1ccc(C(=O)c2ccccc2)s1 (stereo not drawn)
(27) Cc1ccc(S(=O)(=O)N(C)C[C@H]2Oc3c(NC(=O)NC4CCCCC4)cccc3C(=O)N([C@@H](C)CO)C[C@@H]2C)cc1
(28) COC(=O)C(O)(c1c(C)nn(-c2ccccc2)c1N)C(F)(F)F (stereo not drawn)
(29) C[C@H](CO)N1C[C@H](C)[C@H](CN(C)Cc2ccc(Oc3ccccc3)cc2)Oc2ccc(NC(=O)Nc3ccc(F)cc3)cc2C1=O
(30) C[C@@H]1CN([C@@H](C)CO)C(=O)c2cccc(NC(=O)Nc3ccc(C(F)(F)F)cc3)c2O[C@@H]1CN(C)S(=O)(=O)c1ccc(Cl)cc1
(31) Cc1noc(C)c1S(=O)(=O)Nc1ccc2c(c1)C(=O)N([C@H](C)CO)C[C@H](C)[C@H](CN(C)S(=O)(=O)c1ccc(F)cc1)O2
(32) O=C(CSc1ncnc2scc(-c3ccccc3)c12)c1ccccc1

assay / entry,25,26,27,28,29,30,31,32
YB-1 expression,.,-0.43,0.24,.,-0.21,0.15,0.027,.
PD-1 reversal,-2.4,.,.,2.5,0.5,-11,-3.0,-0.5
MITF inhib,2,-59,9,-5,3,87*,-5,-12
Hedgehog inh,.,-16,-13,.,11,?,27,.

(33) Cc1noc(C)c1S(=O)(=O)N(C)C[C@@H]1Oc2c(cccc2N(C)C)C(=O)N([C@H](C)CO)C[C@@H]1C
(34) Oc1cc(Cc2ccccc2)cnc1CN1CCOCC1
(35) C[C@H]1CN([C@@H](C)CO)C(=O)Cc2cc(NC(=O)NC3CCCCC3)ccc2O[C@@H]1CN(C)C(=O)Nc1ccc2c(c1)OCO2
(36) C[C@H]1CN([C@@H](C)CO)C(=O)Cc2cc(NC(=O)Nc3ccccc3)ccc2O[C@@H]1CN(C)C(=O)Nc1ccc(F)cc1
(37) COc1ccc(S(=O)(=O)N(C)CC(=O)Nc2cc(C)ccc2C)cc1C
(38) Cc1ccc(-n2c(SCC(=O)NCC3CCCO3)nc3sc(C)c(C)c3c2=O)cc1C (stereo not drawn)
(39) CCOC(=O)CC1=Nn2c(nnc2-c2cccs2)SC1
(40) CC(=O)Nc1ccc(C(=O)Nc2cccc(NC(=O)c3ccco3)c2)cc1

assay / entry,33,34,35,36,37,38,39,40
YB-1 expression,0.11,-0.69,-0.5,-0.22,.,.,-0.39,.
PD-1 reversal,-1.0,-0.6,0.9,1.3,-1.4,-1.6,1.9,1.9
MITF inhib,-13,-2,0,-17,18,7,1,-7
Hedgehog inh,0,-2,-17,-5,.,.,16,.

(41) O=C(CC1NC2CCCCC2NC1=O)Nc1ccc([N+](=O)[O-])cc1 (stereo not drawn)
(42) COc1ccc(CCNC(=O)Nc2cccc([N+](=O)[O-])c2)cc1OC
(43) COc1ccc(OC)c(/C=C/C(=O)O)c1
(44) CC(C)NC(=O)N(C)C[C@@H]1Oc2ccc(NS(=O)(=O)c3ccccc3)cc2CC(=O)N([C@H](C)CO)C[C@@H]1C
(45) CS(=O)(=O)N(CC(=O)Nc1ccc(C(F)(F)F)cc1)c1cccc([N+](=O)[O-])c1
(46) Cc1ccc(OCC(=O)Nc2ccc(C)cc2[N+](=O)[O-])c(C)c1
(47) CN1C(=O)C(c2c[nH]c3ccccc23)=C(c2c[nH]c3ccccc23)C1=O
(48) C[C@@H]1CN([C@@H](C)CO)C(=O)c2cccc(NS(C)(=O)=O)c2O[C@@H]1CN(C)Cc1ccc(C(F)(F)F)cc1

assay / entry,41,42,43,44,45,46,47,48
YB-1 expression,.,.,-0.21,0.079,.,.,2.2,-0.22
PD-1 reversal,1.9,0.1,1.3,.,-2.4,2.0,-2.5,2.0
MITF inhib,-7,-9,10,-1,11,-56,29,3
Hedgehog inh,.,.,-18,-7,.,.,32,8

(49) CN(C)CC/C=C1\c2ccccc2COc2ccccc21
(50) c1ccc(CN2CCOCCN(Cc3ccccc3)CCOCC2)cc1
(51) C[C@@H]1CN([C@H](C)CO)C(=O)c2cc(NC(=O)CCCN(C)C)ccc2O[C@H]1CN(C)Cc1ccc(Cl)c(Cl)c1
(52) CCn1ncc(C2=NOC(C(=O)Nc3ccc(Cl)c(Cl)c3)C2)c1C (stereo not drawn)
(53) Cc1ccccc1NC(=O)CSc1nnc(-c2ccc(C(C)(C)C)cc2)n1C
(54) C[C@H](CO)N1C[C@H](C)[C@H](CN(C)C(=O)Nc2ccc(F)cc2)Oc2c(NC(=O)CCCCCC(=O)Nc3ccccc3N)cccc2C1=O
(55) O=C(COc1ccc(Cl)cc1)Nc1cc(C(F)(F)F)ccc1N1CCOCC1
(56) COc1cc(-c2nnc(SCC(=O)c3ccc(Cl)cc3)n2C)cc(OC)c1OC

assay / entry,49,50,51,52,53,54,55,56
YB-1 expression,0.16,-0.049,0.013,.,.,-0.43,.,.
PD-1 reversal,.,-0.7,-0.1,1.2,3.0,-0.1,-3.2,0.0
MITF inhib,1,-1,-12,31,-4,-25,-4,2
Hedgehog inh,14,.,1,.,.,.,.,.

(57) COc1ccc(CN(C)C[C@H]2Oc3c(NS(=O)(=O)c4ccc(OC)cc4)cccc3C(=O)N([C@H](C)CO)C[C@H]2C)cc1
(58) Cc1noc(C)c1NC(=O)N(C)C[C@H]1Oc2ccc(NC(=O)CCCN(C)C)cc2C(=O)N([C@@H](C)CO)C[C@H]1C
(59) C[C@H](CO)N1C[C@H](C)[C@H](CN(C)Cc2ccc(C(=O)O)cc2)Oc2c(NC(=O)Nc3ccccc3)cccc2C1=O
(60) C[C@@H]1CN([C@H](C)CO)C(=O)c2cc(NC(=O)CCC(F)(F)F)ccc2O[C@H]1CN(C)S(=O)(=O)c1cn(C)cn1
(61) C[C@@H]1CN([C@H](C)CO)C(=O)c2cc(NS(=O)(=O)c3ccc(F)cc3)ccc2O[C@@H]1CN(C)Cc1ccc(Cl)c(Cl)c1
(62) C[C@H]1CN([C@@H](C)CO)C(=O)c2cc(NC(=O)C3CCCCC3)ccc2O[C@H]1CN(C)Cc1ccc(-c2ccccc2)cc1
(63) O=C(Cc1ccccc1[N+](=O)[O-])Nc1ccccc1CO
(64) Cc1noc(C)c1NC(=O)Nc1ccc2c(c1)C(=O)N([C@@H](C)CO)C[C@H](C)[C@H](CN(C)Cc1ccc(C(=O)O)cc1)O2

assay / entry,57,58,59,60,61,62,63,64
YB-1 expression,-0.82,0.2,-0.33,0.22,-0.12,-0.12,.,-0.38
PD-1 reversal,.,1.5,.,0.4,0.1,-1.3,3.6,1.4
MITF inhib,1,4,2,13,1,8,14,-15
Hedgehog inh,-19,5,.,-17,.,.,.,-27
